Screening data deposited in PubChem BioAssay by National Center for Advancing Translational Sciences (NCATS).
miR-21 FLuc = raises the signal of a miR-21 reporter; HeLa miR-21 FLuc reporter, luciferase, 48 h; AID 2288; 340,000 tested, under 10 active; Potency, µM (doses to about 38.3 µM), for the others: top-dose reporter change, positive = more light; active = well fitted rising curve with a large enough effect; inconclusive = small, poorly fitted or top-dose-only effect; inactive = no such curve, though single readings can be large or run the other way;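 also: % of control where 0% means no effect; miR-21 action dims this reporter so a rising signal means less miR-21 action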
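HeLa cells endogenously expressing miR-21, stably carrying CMV-driven firefly luciferase with a downstream miR-21 binding site, 2000 cells/well. Titrations up to approximately 40 uM, 48 hours; luciferase luminescence read.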
GLA inh pH 4.5 = blocks human alpha-galactosidase A at pH 4.5; P06280; purified enzyme, 4-MU-alpha-Gal fluorescence, pH 4.5; activity change, negative = inhibition, % at 105 µM; 230,000 tested, under 10 active; inconclusive = small, poorly fitted or top-dose-only inhibition, or a rising curve; inactive = flat fitted curve, though single readings scatter; no compound was filed as active;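 also: 0% = full activity with enzyme and -100% = basal without enzyme; dose as in the result columns while the protocol names 77 µM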
Rango release inh = inhibitors of RanGTP-induced Rango-importin beta complex dissociation | Biochemical FRET Rango-importin beta, RanGTP-induced dissociation | Potency, µM (titrated, usually from 46.1 µM), inactives show at the highest dose activity change, negative = inhibition | 340,000 tested, 0.071% active; active means falling FRET ratio curve, often poorly fitted, with flat reads before Ran was added; inconclusive means other falling curves, or compound fluorescence or quenching; inactive means flat or rising ratio curve;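 also: potency is read from the fitted curve at half-maximal effect; % of control where 0% means no effect; nearly all actives have a fitted effect of over 45% in size; -100% = wells without RanGTP and RCC1; the record marks most hits as doubtful in a second field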
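Compounds sat 5 min at room temperature with 0.1 uM Rango biosensor plus 0.25 uM importin beta, then FRET pre-read. RanGTP-RCC1 (0.6 uM Ran, 2mM GTP, 0.2 uM RCC1) added for 45 min, and the CFP/YFP post-read measured blocked complex dissociation.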
Rango complex inh = inhibitors of Rango-importin beta complex formation | AID 540263 | Q14974 | Potency, µM (series often up to 92.2 µM), without a hit: top-dose inhibition of complex formation | Rango CFP/YFP FRET sensor + importin beta, 45 min | 340,000 tested, 0.031% active; active = rising FRET ratio curve, often small or poorly fitted; inconclusive = mostly compound fluorescence or quenching in the first reads; inactive = flat curves in all reads;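 also: potency is read from the fitted curve at half-maximal effect; 0% = DMSO wells and 100% = buffer wells lacking importin beta; nearly all actives have a fitted effect of over 15% in size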
Target sequence (Q14974 whole entry, looked up): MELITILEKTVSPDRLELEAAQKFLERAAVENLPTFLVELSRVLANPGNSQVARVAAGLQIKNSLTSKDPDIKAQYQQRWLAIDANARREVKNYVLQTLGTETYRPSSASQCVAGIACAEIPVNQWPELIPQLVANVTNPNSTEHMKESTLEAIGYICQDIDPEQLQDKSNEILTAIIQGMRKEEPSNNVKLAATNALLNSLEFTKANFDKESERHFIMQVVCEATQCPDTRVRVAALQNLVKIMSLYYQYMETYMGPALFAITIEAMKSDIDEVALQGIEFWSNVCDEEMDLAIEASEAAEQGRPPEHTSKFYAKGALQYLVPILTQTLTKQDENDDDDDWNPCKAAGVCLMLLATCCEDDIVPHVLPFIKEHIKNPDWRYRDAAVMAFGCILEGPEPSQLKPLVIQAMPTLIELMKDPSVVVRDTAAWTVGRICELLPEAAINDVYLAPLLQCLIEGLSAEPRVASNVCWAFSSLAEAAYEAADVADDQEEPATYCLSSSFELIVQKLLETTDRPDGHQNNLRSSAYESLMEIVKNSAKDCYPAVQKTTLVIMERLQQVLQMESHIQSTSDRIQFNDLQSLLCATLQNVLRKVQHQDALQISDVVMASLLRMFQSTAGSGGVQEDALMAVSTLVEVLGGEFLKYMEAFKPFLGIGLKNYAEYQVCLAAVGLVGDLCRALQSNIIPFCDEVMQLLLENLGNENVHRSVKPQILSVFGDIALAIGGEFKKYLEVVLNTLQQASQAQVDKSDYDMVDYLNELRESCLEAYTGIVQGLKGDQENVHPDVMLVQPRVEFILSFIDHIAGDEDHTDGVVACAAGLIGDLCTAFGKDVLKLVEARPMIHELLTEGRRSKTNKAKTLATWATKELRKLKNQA
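Inhibition scored from the CFP 486 nm/YFP 530 nm FRET ratio 45 min after adding 0.125 microM importin beta to 50 nM Rango biosensor preincubated 5 min with compound (room temperature, PBS with DTT, Tween-20, BSA). No-importin wells as positive control.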
Starred values were filed as active, the others as inactive; ? = inconclusive; . = not tested or not shown.

Structure	miR-21 FLuc	GLA inh pH 4.5	Rango release inh	Rango complex inh
Cc1ccc(Nc2nc3nonc3[nH]c2=O)cc1	-41.6%	-0.4	1.0%	-1.3%
COCCCn1c(=O)c2ccccc2n(Cc2ccc(C)cc2)c1=O	-0.7%	.	-6.7%	-3.0%
CC(C)c1ccccc1NS(=O)(=O)c1cccs1	-2.7%	.	-2.1%	3.2%
COc1ccc(-c2cccc3c2NC(=O)C3=O)cc1OC	.	.	-23.7%	-2.3%
O=C(Cc1c(Cl)cccc1Cl)N/N=C/c1cccnc1	-0.2%	.	19.7%	-0.9%
CCCc1cc(NCCN(C)C)n2c(nc3ccccc32)c1C#N	-8.1%	.	-18.8%	?
O=c1oc2ccccc2cc1-c1nc(-c2ccccc2)no1	-37.3%	5.8	-3.0%	-4.2%
COCCNC(=S)NC1CC2CCCC(C1)N2Cc1cccs1 (configuration not stated)	0.4%	-25.7	?	1.4%

Taken from above:
`COc1ccc(-c2cccc3c2NC(=O)C3=O)cc1OC` @ Rango complex inh: -2.3%
`COCCCn1c(=O)c2ccccc2n(Cc2ccc(C)cc2)c1=O` @ miR-21 FLuc: -0.7%
`Cc1ccc(Nc2nc3nonc3[nH]c2=O)cc1` @ Rango release inh: 1.0%

The list continues.
Structure	miR-21 FLuc	GLA inh pH 4.5	Rango release inh	Rango complex inh
Fc1ccc(-[n+]2nc(Nc3ccccc3)sc2-c2c3ccccc3cc3ccccc23)cc1	?	.	-3.1%	-0.1%
COC(=O)[C@@]12CCCN1[C@H](c1ccc(-c3ccc4c(c3)OCO4)c(OC)c1)[C@H]1C(=O)N(C)C(=O)[C@H]12	.	.	9.2%	-1.1%
CCn1ncc(Br)c1C(=O)Nc1ccc(F)cc1F	-13.2%	-2.8	0.5%	-3.3%
CC1(C)CC(=O)C(C=NCCN2CCN(C(=O)c3ccc(Br)cc3)CC2)=C(O)C1	-18.8%	4.2	28.6%	-0.6%
COc1ccccc1NC(=O)NCCN1CCN(C(=O)Nc2ccccc2OC)CC1	0.4%	-3.6	-18.2%	-3.2%
CCc1ccc2c(c1)C(=O)CCC2	.	.	12.3%	-1.7%
OC[C@@H]1[C@@H](c2ccc(Cl)cc2)C(c2cccc(Cl)c2)=NN1c1ccccc1	.	28.9	?	?
CC(C)[C@H](NC(=O)c1ccc(F)cc1)C(=O)NC1=NCCS1	5.3%	8.8	1.7%	-0.4%
CCN(CC)CCNC(=O)c1ccc(NC(=O)c2cccc(-n3cnnn3)c2)cc1	.	.	-0.4%	-5.2%
CCCCC(CC(O)COCC(C)C)C(=O)NNC(=S)Nc1ccccc1 (configuration not stated)	-18.5%	6.6	4.7%	1.0%
Cc1nc2c(C)cccn2c(=O)c1NC(=O)c1cccs1	.	.	10.7%	1.9%
c1ccc(-n2nnnc2Sc2n[nH]c(-c3ccncc3)n2)cc1	-4.0%	0.8	0.7%	2.5%
O=C(c1ccc(-c2nnc(Nc3cccc(Cl)c3)c3ccccc23)cc1)N1C[C@H]2C[C@H](C1)c1cccc(=O)n1C2	0.7%	-27.7	2.1%	-0.2%
O=C(Cc1ccc(F)cc1)N/N=C/c1ccncc1	-5.4%	-23.7	-2.2%	-0.6%
Cc1ccc(NC(=O)CN2CCC(NC(=O)Cc3ccccc3)CC2)cc1C	2.8%	-0.7	-12.0%	-0.8%
Cc1[nH]c2ccccc2c1/C=N/Nc1nc(Nc2ccccc2)nc(N2CCOCC2)n1	-11.6%	-1.3	-10.4%	0.0%
CCCCn1nc(C(=O)Nc2nc3c(s2)CCCC3)c2ccccc2c1=O	0.9%	-7.4	-0.3%	-3.0%
O=[N+]([O-])c1ccccc1/C=N/N1CCN(c2ccc(Cl)cc2)CC1	-0.5%	4.3	6.9%	4.6%
NC(=S)NNC(=O)c1cccc(Cl)c1	-9.5%	4.7	-8.2%	-1.5%
CCc1ccc2[nH]c(=O)c(C(c3nnnn3CC3CCCO3)N3CCCc4ccccc43)cc2c1 (configuration not stated)	-0.9%	-3.7	1.3%	0.0%
COCCNC(=O)c1ccc(CS(=O)(=O)c2ccccc2OC)o1	2.0%	.	-4.0%	-4.3%
Cc1cccc(NC(=O)c2sc(Cl)nc2C)c1C	-1.4%	-4.8	1.1%	-0.2%
CCOC(=O)c1ccccc1N=N/C(C(C)=O)=C(/C)O	-4.1%	-3.7	-9.5%	-0.9%
Cc1ccc(C(=O)NCC(=O)OCC(=O)/C=C2\N(C)c3ccccc3C2(C)C)cc1C	-8.2%	0.4	2.5%	-0.3%
CCCC1=NCCn2cccc21	1.2%	5.7	4.1%	-2.0%
Cc1ccc(NC(=O)c2ccccc2F)cc1S(=O)(=O)N1CCCCCC1	3.5%	-3.4	4.2%	2.1%
COC(=O)C(C)(C)ONC(=O)Nc1ccc(Br)cc1	-22.4%	4.0	10.9%	4.8%
COc1cccc(CN2CC(C(=O)NC3CCC3)CCC2=O)c1 (configuration not stated)	-4.0%	.	-4.4%	-2.3%
Cc1c(NC(=O)c2ccc(S(=O)(=O)N3CCOCC3)cc2)c(=O)n(-c2ccccc2)n1C	0.0%	-0.1	3.9%	-1.8%
CC1CCCN(C/C=C/c2ccccc2[N+](=O)[O-])C1 (configuration not stated)	-4.8%	6.2	9.7%	-2.0%
O=[N+]([O-])c1c(Nc2ccccn2)cc(Cl)c2nonc12	26.5%	-12.7	3.4%	4.7%
O=C(CCCC(=O)OCC(Cl)=C(Cl)Cl)Nc1cccc(F)c1	0.4%	4.6	1.8%	-0.2%
COc1ccc(-n2nnnc2CNC(=O)C(=O)c2c[nH]c3ccccc23)cc1	.	.	11.5%	-2.6%
CCOC(=O)C(NC(=O)C1C(C)N1S(=O)(=O)c1ccc(C)cc1)C(=O)OCC (configuration not stated)	-0.1%	.	26.4%	?
C/C(=N\NC(=O)c1cc(Br)ccc1O)c1cccc(NC(=O)c2ccccc2F)c1	-30.8%	.	15.0%	-2.0%
CS(=O)(=O)N1CCN(C(=O)COc2ccccc2)CC1	0.6%	9.4	0.9%	-1.5%
COc1ccccc1NC(=O)Nc1ccc(NC(=O)c2ccccc2O)cc1	-12.9%	.	-2.3%	0.0%
NC(=S)n1[nH]c(-c2ccc([N+](=O)[O-])cc2)c(N=Nc2cccc([N+](=O)[O-])c2)c1=O	-1.8%	-11.2	1.1%	-1.1%
COC(=O)c1ccccc1OCCCCN1CC(C)OC(C)C1 (configuration not stated)	-6.9%	6.0	19.1%	-0.4%
COCCn1nnnc1C(c1cccs1)N1CCN(c2cccc(C(F)(F)F)c2)CC1 (configuration not stated)	4.7%	?	?	-0.3%
COc1ccccc1CNC(=O)CC1C(=O)NCCN1C1Cc2ccccc2C1 (configuration not stated)	-1.4%	.	-0.5%	6.5%
C/C(Cc1ccccc1)=N\NC(=O)CNC(=O)c1ccc(Br)cc1	-2.0%	-1.0	-11.3%	3.2%
CC1CCN(S(=O)(=O)c2ccc(NC(=O)C3CC(=O)N(c4ccccc4)C3)cc2)CC1 (configuration not stated)	9.7%	.	6.2%	-4.9%
CN1/C(=C/c2cccc[n+]2C)Sc2ccccc21	?	.	11.6µM*	?
Cc1nc2ccccc2nc1OCC(=O)Nc1ccc2ccccc2c1	3.7%	-3.1	-11.2%	-1.6%
Cc1cc(C)nc(Sc2c(F)c(F)c(C(F)(F)F)c(F)c2F)n1	0.4%	3.3	3.0%	-1.8%
O=C(COC(=O)c1ccccc1NC(=O)c1ccco1)Nc1ccc2c(c1)OC(F)(F)O2	1.3%	2.2	-0.5%	0.1%
C=C(C)Cn1c(N2CCC(Cc3ccccc3)CC2)nc2c1c(=O)[nH]c(=O)n2C	-16.5%	-2.8	7.4%	0.5%
CCOc1ccc(-n2c(-c3ccc(Cl)cc3)c[n+]3c2SCC3)cc1	?	-10.9	5.4%	0.4%
COC(=O)c1ccc(NC(=S)N2CCN(Cc3ccc(Cl)cc3)CC2)cc1	-5.4%	-3.2	-27.5%	-2.7%
COc1ccc(N2CC(C(=O)Nc3ccc4c(c3)OCO4)CC2=O)cc1 (configuration not stated)	-10.5%	-4.0	13.0%	4.1%
COc1cccc(C(=O)Nc2nc3ccccc3s2)c1	-29.6%	.	12.0%	0.3%
OC(COc1ccccc1)CSc1ncn[nH]1 (configuration not stated)	0.7%	1.4	8.3%	-0.7%
CCCOP(=O)(OCCC)C1(Nc2ccc(C)cc2)CCCCC1	-3.8%	1.6	6.4%	-0.7%
Cc1ccc(CN2CCSc3ccc(C(=O)NC4CCN(Cc5ccccc5)CC4)cc32)cc1	-6.4%	-1.6	-1.9%	2.3%
COC(=O)c1c(NC(=O)C2C3CCC(C3)C2C(=O)O)sc2c1CCCCC2 (configuration not stated)	-18.4%	-16.2	-7.1%	-2.2%

(next part)
Structure	miR-21 FLuc	GLA inh pH 4.5	Rango release inh	Rango complex inh
CCCCCCCC1CC(CSC(=N)N)OC1=O (configuration not stated)	20.9%	-1.1	1.9%	-0.2%
O=S(=O)(NCCc1ccccc1)c1cccs1	-5.7%	.	12.7%	1.2%
COc1cccc(Nc2nn3c(=O)c4ccccc4nc3s2)c1	.	.	?	-3.6%
CCCCNC(=O)C(=O)c1ccccc1NC(C)=O	-7.7%	-12.6	2.7%	-0.5%
COc1cc(C2C(C(=O)c3ccc(C)o3)=C(O)C(=O)N2CCN2CCOCC2)ccc1OCCC(C)C (configuration not stated)	-6.0%	.	-11.6%	-0.8%
COc1ccc(-c2cc(C(F)(F)F)nc(SCC(=O)NCc3cnn(C)c3C)n2)cc1OC	1.6%	0.3	-3.3%	-0.8%
O=C(NCC1CCCCC1)c1ccc(Br)o1	-7.3%	.	6.1%	0.6%
CCCCN(Cc1nc2ccccc2c(=O)[nH]1)C(=O)COc1ccc(F)cc1Cl	.	.	?	?
COc1cccc(N2CCN(CC(=O)c3c(C)[nH]c4ccccc34)CC2)c1	0.1%	-16.2	-14.6%	0.8%
O=[N+]([O-])c1cc(S(=O)(=O)N2CCCC2)ccc1NN=C1CCCCC1	-4.8%	-13.7	1.5%	3.5%
CCOc1ccccc1C(C(=O)NC1CCCCC1)N(C(=O)c1csnn1)C1CC1 (configuration not stated)	0.4%	.	6.9%	-2.3%
COc1cc(-c2cc(-c3ccccc3)nc(SCC(=O)Nc3nccs3)c2C#N)cc(OC)c1OC	-15.0%	4.8	?	?
Cc1nnc(SCc2nc3sc4c(c3c(=O)[nH]2)CCCC4)n(N)c1=O	-3.7%	-5.7	-0.1%	?
COc1ccc(NC(=O)COC(=O)c2ccc(-n3cnnn3)cc2)cc1Cl	.	.	-0.3%	10.5%
C[N+]1(CCNC(=O)/C=N/O)CCCCC1	0.4%	10.2	-3.0%	4.7%
COC(=O)CC(NC(=O)c1ccco1)c1ccc(C(C)C)cc1 (configuration not stated)	-6.4%	4.7	-5.1%	2.8%
COCCNC(=O)c1cc(-c2ccccn2)nc2ccc(S(=O)(=O)N3CCC(C)CC3)cc12	-3.6%	.	1.9%	7.2%
C=CCNC(=S)N1CCOCC1	-2.4%	9.7	12.0%	-0.1%
Cc1cccc(N2CCN(S(=O)(=O)c3cccs3)CC2)c1C	0.6%	.	-8.6%	-0.3%

A portion of the library; count on the stated rates, not on these rows.
